# Sa growth inh: inhibitors of Staphylococcus aureus growth at 42 °C. S. aureus RN4220 growth, OD600, 20 h; hits give low values. relative growth, % (no concentration beside the values). 0.53% of 170,000 active. AID 720641;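 active = growth at 42 °C up to 50% and 20 or more points under that at 30 °C, or under 10% at both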;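 also: 300 nL library stock went into each well; scaled to the means of positive and negative controls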
# HCMV UL50-53 inh: inhibitors of HCMV UL50-UL53 nuclear egress complex interaction; HTRF UL50-UL53 interaction, normalized percent inhibition; inhibition, % (test concentration not listed); 0.15% of 190,000 active; AID 1918969;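 active = both replicates at 50% or more, plus weaker picks with an unusually low signal ratio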;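 also: stock transfer was 100 nL into about 20 µL; 0% = negative control wells and 100% = wells with untagged competitor protein; inactives centre near -12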
# GIV Gai3 FP: GIV-Galpha-i interaction inhibition | P08753 | Galpha-i3/FITC-GIV peptide fluorescence polarization, 90 min; hits give low values; scaled: aluminum fluoride 0%, vehicle 100% | percent of control (FP), % (no concentration beside the values) | 0.42% of 210,000 active | AID 1224905;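 active = replicate mean at 85% of control or lower, very high polarization wells dropped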;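 also: wells of about 15 µL received 100 nL stock; the first replicate is given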
# Target sequence (P08753 whole entry, looked up): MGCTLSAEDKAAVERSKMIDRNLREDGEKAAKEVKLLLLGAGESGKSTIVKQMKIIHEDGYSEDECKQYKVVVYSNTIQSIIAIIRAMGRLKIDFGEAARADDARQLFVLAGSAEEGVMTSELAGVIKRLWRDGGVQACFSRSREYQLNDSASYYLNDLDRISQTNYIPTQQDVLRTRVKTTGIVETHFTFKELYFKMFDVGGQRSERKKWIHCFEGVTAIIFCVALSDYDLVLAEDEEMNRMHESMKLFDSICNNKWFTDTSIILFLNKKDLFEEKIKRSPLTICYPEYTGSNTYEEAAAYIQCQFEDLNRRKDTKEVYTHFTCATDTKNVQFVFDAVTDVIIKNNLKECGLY
# Sa growth inh second temp: second read-out of Sa growth inh, no call of its own (marks repeat the call); relative growth, %; measured here: growth at 30 °C;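 optical density after 20 h as mean of two plates; 100% = untreated growth and lower means inhibition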
# * marks the source's active call; other numbers are inactive results; nt = no result given; & = joins results of further samples.
entry	structure	Sa growth inh	Sa growth inh second temp
1	Cn1ncc(COC(=O)Nc2c(Cl)cccc2Cl)c1C(F)(F)F	83	82
2	Cc1cccc(-c2nc(N3CCN(c4ccc(F)cc4)CC3)c3ccccc3n2)c1	84	91
3	CN1C(=O)c2ccc(-c3ccc(C=C4C(=O)NC(=O)NC4=O)o3)cc2C1=O	78	77
4	CCOC(=O)c1c(Sc2ccccc2)cnn1C(=O)c1ccc(C(F)(F)F)cc1	110	88
5	CC1=CC(c2ccccc2)n2nc(N3C(=O)c4ccccc4C3=O)nc2N1 (configuration not stated)	95	86
6	CN(Cc1cccs1)C(=O)Cc1ccc2c(c1)OCCO2	93	94
7	Cc1c(NS(=O)(=O)c2cc(Br)cc3c2N(C(=O)C2CC2)CC3)c(=O)n(-c2ccccc2)n1C	97	86
8	CC(=O)N(C)c1ccc(N=Cc2ccc(O)cc2)cc1	106	104
9	C/C(=N\O)c1cc2cc(Cl)ccc2oc1=O	81	86
10	CCOc1ccc2oc(C)c(C(=O)Nc3ccccc3OC)c2c1	nt	nt
11	O=C(C1CCCCC1)N1CCN(c2cc(=O)n3nc(-c4ccccc4)sc3n2)CC1	nt	nt
12	CCC(=O)NCc1cc(-c2nn(C)c(=O)c3ccccc23)ccc1OC	96&99	90&85
13	O=C(OCn1nnc2ccccc2c1=O)C1CCCCN1S(=O)(=O)c1ccccc1 (configuration not stated)	106	80
14	CCNS(=O)(=O)c1cccs1	102	81
15	O=C(Nc1nnc(SCc2ccccn2)s1)C1CC(=O)N(c2ccccc2)C1 (configuration not stated)	99	92

entry	HCMV UL50-53 inh	GIV Gai3 FP
1	-22	104
2	-52	103
3	-71	87
4	-27	99
5	-6	104
6	-16	nt
7	-17	104
8	6	103
9	-35	nt
10	4	102
11	-21	99
12	-38&-13	107&107
13	-46	nt
14	-12	99
15	1	109

# Later entries
entry	structure	Sa growth inh	Sa growth inh second temp
16	CCOC(=O)c1cn2c3c(c(F)c(F)c(F)c3c1=O)SC(N1CCCC1)=N2	93	86
17	CC(NC(=O)c1ccc(=O)[nH]c1)C12CC3CC(CC(C3)C1)C2 (configuration not stated)	92	87
18	CCOC(=O)N1CCN(C(=O)c2ccc3c(c2)N(C)C(=O)/C(=C/c2ccc(OC)cc2)S3)CC1	94	70
19	CSc1cccc(NC(=O)CSc2nc3ccccc3o2)c1	99	87
20	CCOC(=O)c1cc(-c2ccc(F)cc2)n(CCC(=O)Nc2nc3ccc(C)cc3s2)c1C	94	94
21	COC(=O)c1cc2occc2n1Cc1ccc(F)cc1Cl	111	101
22	O=C(Nc1ccccc1C(F)(F)F)c1cc2ccccn2n1	94	88
23	CC(C)C(=O)NCCSc1c(-c2ccccc2)[nH]c2ccccc12	89	74
24	COc1ccccc1CNC(=O)Cc1c(C)c2c(cc(C)c3c(C)coc32)oc1=O	99	85
25	CCN(CC)CCN1C(=O)Cn2c(C)c(C)c3cccc1c32	102	85
26	Cc1ccc(S(=O)(=O)CCC(=O)Nc2nccs2)cc1	97	92
27	CC(=O)c1nn(-c2ccc(OC(F)(F)F)cc2)nc1Nc1ccc(C)cc1	88	91
28	COc1cc(CSC2=NCCN2)cc(OC)c1OC	102	88
29	O=S1(=O)C[C@H](N2CCN(c3ncccn3)CC2)[C@@H](S(=O)(=O)c2ccc(F)cc2)C1	nt	nt
30	Cn1ncc2c(N3CCN(c4ccccc4Cl)CC3)ncnc21	94	100

entry	HCMV UL50-53 inh	GIV Gai3 FP
16	-28	108
17	-22	nt
18	-38	104
19	nt	99
20	nt	105
21	-24	103
22	nt	104
23	nt	101
24	-36	103
25	-13	nt
26	nt	101
27	-7	102
28	-8	103
29	-8	102
30	nt	105

# Following part:
entry	structure	Sa growth inh	Sa growth inh second temp
31	O=C(Nc1ccc(Cl)cc1)O/N=C1\CCCCC1Cn1ccnc1 (configuration not stated)	46	4
32	NC(=O)c1ncoc1-c1ccccc1Cl	95	93
33	Cc1ccc2oc(=O)n(CCc3noc(-c4ccccc4)n3)c2c1	100	93
34	c1ccc(-c2noc(-c3cccnc3NCc3ccco3)n2)cc1	95	85
35	CCC(C)NS(=O)(=O)c1ccc(OC)c(OC)c1 (configuration not stated)	94	93
36	O=C(Nc1cccc2c1CCCC2)N1CCOc2ccc(Cl)cc21	104	92
37	CC(=O)N1c2ccccc2C(=O)C1N1CCN(c2ccccc2F)CC1 (configuration not stated)	87	84
38	COc1cccc(OC)c1C(=O)N1CCN(Cc2cccc3ccccc23)CC1	88	78
39	Cn1c(SCc2ccccc2Cl)nc2c([nH]c3ccccc32)c1=O	115	91
40	CC(=O)n1c2ccccc2c2cc(Br)ccc21	110	81
41	CCCn1c(-c2ccccc2)nc2c(=O)n(C)c(=O)[nH]c21	105	96
42	c1ccc(OCCSc2nc3ccccc3[nH]2)cc1	71	86
43	OC(CNCc1ccc(Cl)cc1)COc1ccc(F)cc1Cl (configuration not stated)	113	95
44	O=C(NC1CCCc2ccccc21)C1CCN(c2nnc(-n3cccc3)s2)CC1 (configuration not stated)	95	81
45	O=C(O)CCc1ccc(-c2cccs2)[nH]1	108	78

entry	HCMV UL50-53 inh	GIV Gai3 FP
31	-31	106
32	-5	102
33	2	104
34	-25	103
35	-6	104
36	-6	103
37	nt	99
38	-23	104
39	nt	106
40	nt	106
41	2	102
42	nt	104
43	-6	nt
44	10	106
45	-37	116

# Some entries already given, showing only GIV Gai3 FP and HCMV UL50-53 inh.
No. | canonical_smiles | GIV Gai3 FP | HCMV UL50-53 inh
40 | CC(=O)n1c2ccccc2c2cc(Br)ccc21 | 106 | nt
41 | CCCn1c(-c2ccccc2)nc2c(=O)n(C)c(=O)[nH]c21 | 102 | 2

# Continued:
entry	structure	Sa growth inh	Sa growth inh second temp
46	COc1ccc(C)cc1NC(=O)CCNS(=O)(=O)c1cccc2nonc12	102	84
47	CC(=O)OC1=C(Sc2ccc(Cl)cc2)C(=O)CCC1	108	59
48	CCOc1ccc(-c2noc(CSc3nnc(-c4ccccc4)n3-c3ccccc3)n2)cc1	95	77
49	O=C(CSc1nnc(-c2cccnc2)o1)NCCc1ccccc1	98	96
50	CC(C)COC(=O)N1c2ccccc2C=CC1OCC(C)C (configuration not stated)	69	88
51	Cn1c(C(O)c2ccccc2)nc(Cl)c1Cl (configuration not stated)	99	88
52	O=C(Oc1ccc(C2SCCS2)cc1)c1ccccc1Cl	117	74
53	CCOC(=O)c1c(NC(=O)C2Cc3ccc(C)cc3C(=O)O2)sc2c1CCC(CC)C2 (configuration not stated)	nt	nt
54	CCOC(=O)c1ccc2nc(C)c(CC)c(Cl)c2c1	114	97
55	Cn1c(CSc2cc(C(F)(F)F)nc3ccccc23)n[nH]c1=S	99	85
56	CC(Sc1nc(-c2ccccc2)c(-c2ccccc2)[nH]1)C(=O)O (configuration not stated)	68	80
57	c1ccc(-c2noc(-c3ccc(Nc4ccc5c(c4)OCCO5)nn3)n2)cc1	nt	nt
58	COC(=O)C(C)Sc1nc2c([nH]c3ccccc32)c(=O)n1C (configuration not stated)	92	79
59	Cc1oc(-c2ccc(Cl)cc2)nc1CN1CCC(C(=O)NCc2ccccc2Cl)CC1	nt	nt
60	CC(C)C(NC(=O)c1ccc(F)cc1)C(=O)N1CCC1 (configuration not stated)	70	85

entry	HCMV UL50-53 inh	GIV Gai3 FP
46	-112	102
47	-19	nt
48	-36	98
49	0&-32	105&104
50	-10	nt
51	-8	96
52	-12	nt
53	-8	104
54	12	110
55	-52	101
56	-4	107
57	-31	96
58	nt	112
59	-32	101
60	-32	nt

# Screen by screen, as entered above:
# Sa growth inh second temp, nos. 49 to 56: 96, 88, 88, 74, nt, 97, 85, 80
# HCMV UL50-53 inh, nos. 49 to 56: 0&-32, -10, -8, -12, -8, 12, -52, -4

# Back to the main list, starting 7 compounds before the break.
entry	structure	Sa growth inh	Sa growth inh second temp
54	CCOC(=O)c1ccc2nc(C)c(CC)c(Cl)c2c1	114	97
55	Cn1c(CSc2cc(C(F)(F)F)nc3ccccc23)n[nH]c1=S	99	85
56	CC(Sc1nc(-c2ccccc2)c(-c2ccccc2)[nH]1)C(=O)O (configuration not stated)	68	80
57	c1ccc(-c2noc(-c3ccc(Nc4ccc5c(c4)OCCO5)nn3)n2)cc1	nt	nt
58	COC(=O)C(C)Sc1nc2c([nH]c3ccccc32)c(=O)n1C (configuration not stated)	92	79
59	Cc1oc(-c2ccc(Cl)cc2)nc1CN1CCC(C(=O)NCc2ccccc2Cl)CC1	nt	nt
60	CC(C)C(NC(=O)c1ccc(F)cc1)C(=O)N1CCC1 (configuration not stated)	70	85
61	Cc1nn2c(=O)c3ccc(C(=O)O)cc3nc2s1	106	97
62	O=C(Nc1ccc(F)cc1)Nc1ccc(N2CCOCC2)c2nonc12	119	92
63	Cc1ccc(C)c(NC(=O)C(C)Sc2nc3c(c(=O)[nH]2)CCCC3)c1 (configuration not stated)	nt	nt
64	COc1ccccc1CCNC(=O)Cn1ccc2cc(S(=O)(=O)N3CCCCC3)ccc21	103	93
65	O=C(Nc1ccc2[nH]c(=O)oc2c1)Nc1ccc(Br)cc1F	nt	nt
66	COc1ccc(Cl)cc1-n1nnc(-c2nsc(NC(=O)c3ccccc3Cl)n2)c1C	98	75
67	O=C(Nc1ccc(-c2cn3ccccc3n2)cc1)c1cccs1	nt	nt
68	Cc1ccc2nc(COc3ccccc3NC(=O)c3ccccc3F)cc(=O)n2c1	75	86
69	CCCCn1c(N)c(N(CC)C(=O)c2ccccc2)c(=O)[nH]c1=O	101	92
70	Cc1cccc(OCCSc2nnc(-c3cccs3)o2)c1	92	83
71	CCCOc1ccc(/C=C(\C#N)C(=O)NC(N)=O)cc1OCC	101	98
72	CCn1nc(C)cc1-c1nnc(SCc2c(Cl)cccc2Cl)o1	90	82
73	O=C(CCC1CCCCC1)Nc1ccc2c(c1)OCCO2	116	91
74	COc1cc(C(=O)NCC(c2cccnc2)N2CCN(c3ccc(F)cc3)CC2)cc(OC)c1OC (configuration not stated)	98	86
75	Cc1c(C)n(C)c2ccc(C(=O)NC(C)C)cc12	nt	nt

entry	HCMV UL50-53 inh	GIV Gai3 FP
54	12	110
55	-52	101
56	-4	107
57	-31	96
58	nt	112
59	-32	101
60	-32	nt
61	nt	103
62	-19	106
63	-24	102
64	nt	105
65	-15	103
66	4	97
67	7	103
68	nt	98
69	-6	nt
70	7	99
71	-9	nt
72	3	102
73	-20	nt
74	-26	106
75	-15	110

# Carrying on:
entry	structure	Sa growth inh	Sa growth inh second temp
76	CN1c2ccccc2N(C)C1c1cccs1	88	92
77	COc1ccc(NC(=O)c2cc(CN3C(=O)c4ccccc4C3=O)ccc2OC)cn1	103	97
78	COc1ccccc1CNC(=O)Cn1c(=O)ccc2cc(S(=O)(=O)N3CCCC3)ccc21	96	79
79	CNC(=S)N(Cc1ccccc1)Cc1cccnc1	91	94
80	Cc1ccc2cccc(NC(=O)c3cccc4c(Cl)cccc34)c2n1	105	91
81	O=C(Nc1cccnc1)c1cc(-c2ccco2)on1	100	96
82	Cc1nc2nc(CSc3ccc(Cl)cc3)cc(=O)n2[nH]1	91	88
83	C=CCN(C(=O)Nc1ccccc1)C1CC(=O)N(c2ccc(OC)cc2)C1=O (configuration not stated)	100	110
84	Cc1cc(C)nc(NC(c2ccccc2)c2c(NC(=O)c3ccccc3)sc(C)c2C)n1 (configuration not stated)	nt	nt

entry	HCMV UL50-53 inh	GIV Gai3 FP
76	-25	99
77	10	nt
78	nt	96
79	-24	103
80	-9	104
81	-13	108
82	nt	139
83	1	102
84	8	107

# Three compounds already listed, ordered by count of non-hydrogen atoms, low to high:
entry	structure	Sa growth inh	Sa growth inh second temp
81	O=C(Nc1cccnc1)c1cc(-c2ccco2)on1	100	96
82	Cc1nc2nc(CSc3ccc(Cl)cc3)cc(=O)n2[nH]1	91	88
78	COc1ccccc1CNC(=O)Cn1c(=O)ccc2cc(S(=O)(=O)N3CCCC3)ccc21	96	79

entry	HCMV UL50-53 inh	GIV Gai3 FP
81	-13	108
82	nt	139
78	nt	96
